NPYLR7 ag – agonists of mosquito NPYLR7 receptor, primary screen, cell-based, Aedes aegypti, calcium fluorescence, mosquito biting behavior. HEK293T NPYLR7/Galpha15, GCaMP6s calcium fluorescence. activation, % at 10 µM. 270,000 compounds, 0.15% hits; in the data active = activation above about 40%;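 also: 0% = vehicle and 100% = reference agonist at the receptor; some compounds past the cut are filed as inactive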
NPYLR7 ag max-min – second read-out of NPYLR7 ag, no call of its own (marks repeat the call); activation, %; measured here: Max-Min RFU normalised activation; some inactives read as strong as hits;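 span of the calcium signal over five minutes; 0% = vehicle and 100% = native peptide agonist; compound fluorescence can raise it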
Active calls of the source: *; & = joins results of further samples.

smiles | NPYLR7 ag | NPYLR7 ag max-min
CN1C(=O)C2(CCCN(C(=O)C(=O)Nc3cccc(F)c3)C2)c2ccccc21 (stereo not drawn) | -4.9 | -5.4
CCc1[nH]c2ccc(CNC(C)Cn3nc(C)cc3C)cc2c1C (stereo not drawn) | -0.5 | -4.8
Cn1c(-c2ccncc2)n[nH]c1=S | 5.3 | 4.5
COc1cc(OC)cc(C(=O)Nc2ccc(CCNC(=O)NC(C)C)cc2)c1 | -5.0 | -11.1
NS(=O)(=O)c1ccc(CCNC(=O)c2csc(COC(=O)c3ccccc3)n2)cc1 | 2.7 | -0.1
COc1ccc(CCNC(=O)c2ccccc2N2CCC(NC(=O)c3cc(F)cc(F)c3)CC2)cc1 | 16.8 | 13.9
COc1ccc(Cl)cc1N1CCN(C(=O)c2ccc(Br)cc2)C(C)C1=O (stereo not drawn) | -0.5 | 11.8
O=C(COc1cccc2ccccc12)NCCc1ccccc1 | -3.1 | -5.7
CCn1ccnc1CN1CCC(CO)(CC2CCCCO2)CC1 (stereo not drawn) | 7.3 | 1.7
O=C(c1cn[nH]n1)N1CCc2c([nH]c3ccccc23)C1 | -7.3 | -8.4
N#Cc1ccc(-c2ccc(OCC(=O)NN3Cc4ccccc4C3=N)cc2)cc1 | -0.2 | -1.3
CCOCCN1CCN(Cc2cn3c(C)cc(C)nc3n2)CC1 | 2.9 | 2.6
CCOC(=O)N1CCN(Cc2ccc3c(c2)CN(C(=O)c2cccc(-n4cccn4)c2)CCO3)CC1 | -1.4 | -8.5
COc1ccc(-c2cccc(-c3cccc(NC(=O)c4ccccc4C(F)(F)F)c3)n2)cc1 | -4.6 | -3.2
COc1cccc(CCC2CCCN(C(=O)c3cccnc3)C2)c1 (stereo not drawn) | -0.3 | -2.4
COCc1ccc(CNC(=O)Nc2ccccc2-n2c(C)c[nH]c2=O)cc1 | 5.8 | 2.7
Cc1nc(CN2CCCCC2CCNS(C)(=O)=O)sc1C (stereo not drawn) | 3.0 | 1.6
COC(=O)C1=C(O)/C(=C\c2cc(O)c(OC)c(OC)c2)SC1=Nc1cccc([N+](=O)[O-])c1 | -2.7 | 5.0
COc1cc(C)c(NC(=O)c2cnccn2)cc1OC | -21.9 | -23.4
Cc1nc2ccccc2nc1CN1CCCC(C(=O)Nc2cccc(-n3cccn3)c2)C1 (stereo not drawn) | 1.6 | -1.5
CCn1nc(C)c(C(=O)NCc2cc(-c3ccc(C)cc3)on2)c1C | 16.0 | 6.3
CCN(Cc1nc2cc(Cl)ccc2c(=O)[nH]1)C(=O)COc1cc(C)ccc1Cl | 9.0 | 11.2
O=c1[nH]c(-c2ccc(Br)cc2)nc2sc3c(c12)CCCC3 | 16.8 | 9.4
Cn1c(O)c(N=Nc2cccc3cccnc23)c2ccccc21 | -1.4 | 6.9
O=C(c1ccc2ncc(I)n2c1)N1CCCCCCC1 | -0.5 | -4.2
Cc1cc(C)c2c(CC(=O)N3CCCC4(CNC(=O)O4)C3)coc2c1C (stereo not drawn) | 2.9 | 2.4
O=C(NC1CCS(=O)(=O)c2ccccc21)C1CCCN(C(=O)c2ccco2)C1 (stereo not drawn) | 0.6 | 0.2
O=C1CN(C(=O)CC(c2ccccc2)c2ccc(Cl)cc2)CCN1 (stereo not drawn) | 16.0 | 4.3
O=C(C1CC=CCC1)N1CCc2ccc(NC(=O)C3(c4ccccc4)CC3)cc2C1 (stereo not drawn) | 6.1 | 5.5
O=C(C1CCCN1S(=O)(=O)c1cccs1)N1CCN(c2nc3ccc(Cl)cc3s2)CC1 (stereo not drawn) | 11.8 | 8.4
c1ccc2oc(-c3ccc(C4NCCc5[nH]cnc54)cc3)cc2c1 (stereo not drawn) | 8.6 | -7.0
CCOC(=O)C1(C)CCCN1C(=O)c1ccc2ccccc2c1 (stereo not drawn) | -2.1 | -6.0
COc1cc(Cl)cc(C(=O)N2CCC(O)(CN(C)C)C2)c1 (stereo not drawn) | 4.7 | 1.1
Cc1[nH]n(-c2nc(-c3cccc([N+](=O)[O-])c3)cs2)c(=O)c1N=Nc1ccccc1C(F)(F)F | -3.0 | -6.9
COc1ccccc1C1CC(c2ccc(C)cc2C)=NN1C(=O)CN1CCOCC1 (stereo not drawn) | -5.6 | 3.3
CCC1(C)NC(=O)N(N=Cc2ccccc2)C1=O (stereo not drawn) | 24.7 | 18.6
Cn1c(=O)c2cc(NC(=O)Cc3cccnc3)ccc2n1-c1ccc2ccccc2c1 | 2.8 | 1.0
COc1ccc(-c2cc3c(n(C)c2=O)CCN(C(=O)C2Cc4ccccc4O2)C3)c2ccc(C)nc12 (stereo not drawn) | 13.9 | 3.4
CCN(C(=O)c1ccccc1OCCOC)c1cccnc1 | 14.7 | 10.3
Cc1ccc(Cc2nsc(N3CCN(S(=O)(=O)c4ccc5ccccc5c4)CC3)n2)cc1 | 10.9 | 21.4
Cc1ccccc1N1C(=O)CSC1c1ccc(NC(=O)c2cc(C(F)(F)F)cc(C(F)(F)F)c2)cc1 (stereo not drawn) | 6.6 | 18.1
CCN(C(=O)Nc1ccccc1OC)C(C)c1ccncc1 (stereo not drawn) | 7.5 | 4.5
CCCc1noc(CN2CCCC2C(=O)Nc2nccs2)n1 (stereo not drawn) | 8.2 | 5.0
COc1ccc(S(=O)(=O)n2cc(-c3cccc(OC)c3)c(N)n2)cc1 | 1.1 | -2.0
Cc1ccc(C(C)NS(=O)(=O)Cc2ccc(F)cc2)o1 (stereo not drawn) | -3.2 | -4.7
Cc1ccc(N2C(=O)N(CC(=O)NC(C)c3cc(C)ccc3C)C(=O)C2C)cc1 (stereo not drawn) | 0.6 | 13.2
O=C(Cn1c2ccccc2n2ncnc12)c1cccs1 | 9.0 | -0.6
CC(NC(=O)C(C)N1C(=O)CCC1=O)C(c1ccccc1)c1ccccc1 (stereo not drawn) | 4.0 | -0.7
COCc1nc(N2CCN(C/C=C/c3ccccc3)CC2)c2cnn(C)c2n1 | 5.3 | 4.1
O=C(O)COc1ccccc1/C=C1\SC(=S)N(NC(=O)c2ccccc2)C1=O | -6.3 | -9.8

Going on with the list.
smiles | NPYLR7 ag | NPYLR7 ag max-min
CCOC(=O)C1=C(C)NC2=C(C(=O)CC(C)(C)C2)C1c1coc2ccc(C)cc2c1=O (stereo not drawn) | -10.2 | -15.3
COC(=O)c1cc(OC)c(OC)cc1NC(=O)COc1ccc(Br)cc1 | 2.8 | 4.9
NC(=O)CCOc1ccccc1NC(=O)NC1CCOc2ccccc21 (stereo not drawn) | 9.6 | 8.4
CCCc1cc(C(=O)OCC)nn1C1CCN(S(=O)(=O)c2ccc(OC)c(OC)c2)CC1 | 14.2 | -0.7
COc1ccc(C(C)O)cc1CSc1nc2ccccc2s1 (stereo not drawn) | 9.6 | 2.9
Cc1ccc(F)cc1C(=O)N1CCN(C(c2ccc(F)cc2)c2ccc(F)cc2)CC1 | 3.7 | 1.4
O=S(=O)(c1ccc(OCCN2CCCc3ccccc32)cc1)N1CCOCC1 | 4.8 | 3.3
O=C(OCc1nc(-c2cccs2)no1)C1CC2CCCC(C1)C2=O (stereo not drawn) | 3.1 | 7.9
O=C(Nc1ccc(F)cc1F)N1CCC2(CC1)SCCN2C(=O)c1ccc(Cl)cc1 | -0.7 | 10.6
O=C(O)[C@@H]1C[C@@H]2O[C@H]1[C@H]1CN(Cc3ccccc3)C[C@H]1[C@@H]2O | 7.2 | 9.6
CN1CCN(C(=O)c2ccccc2NC(=O)c2ccc([N+](=O)[O-])cc2)CC1 | -21.5 | -22.8
COc1cc(-c2cc(C(F)(F)F)n3ncc(C(N)=O)c3n2)cc(OC)c1OC | -4.7 | -10.3
N#Cc1ccc(CSC2=NCCN2)cc1 | -0.1 | -0.3
Cc1cn(C(=O)c2ccccc2)c(=O)[nH]1 | -7.8 | -10.2
CC1CCCC(C)N1NC(=O)Cc1c(Cl)cccc1Cl (stereo not drawn) | -10.2&6.0 | -9.9&3.6
COc1ccccc1S(=O)(=O)Nc1ccc(-c2nnc3n2CCCCC3)cc1 | 2.0 | 2.0
CC(=O)Nc1ccc(CN2CCCC(CO)(Cc3ccccc3C)C2)cc1 (stereo not drawn) | 1.4&16.0 | -2.6&14.7
Cn1ccnc1C1CCCCN1Cc1nc(Cc2cccc(C(F)(F)F)c2)no1 (stereo not drawn) | 13.4 | 3.5
O=C(COc1ccccc1)Nc1nnc(SCc2ccc(F)cc2F)s1 | -5.0 | 6.3
CCn1c(C2CCCN(Cc3cc(C)no3)C2)nn(CCN(C)C)c1=O (stereo not drawn) | 29.1 | 12.7
Cc1ccc(OCC(=O)n2nc(C)c(Sc3ccccc3)c2C)cc1 | -6.3 | -6.2
CC(C)C(=O)N1CCC(N(C)Cc2nc3ccccc3n2C)CC1 | 4.1 | 2.8
COCc1c(C(=O)N(C)Cc2ccc(C)o2)noc1C | 24.7 | 17.7
CCNC(=O)N(CCOC)Cc1cc(NC(=O)CC)ccc1N(C)C | 3.5 | 16.8
Cc1cc(S(=O)(=O)N2CCN(Cc3ncc(-c4ccccc4)o3)CC2)ccc1Br | -1.2 | 4.5
CCCC(NC(=O)Cn1nnn(-c2ccccc2)c1=O)c1ccccc1 (stereo not drawn) | -4.8 | -7.5
COCCNC(=S)NNc1c(Cl)cc(Cl)cc1Cl | 2.7 | 3.7
COCCn1c(N)c(N(Cc2ccccc2)C(=O)c2occc2C)c(=O)[nH]c1=O | -1.2 | -1.1
COc1ccc(-c2ccc(C)c(NC(=O)c3ccccc3)c2)nn1 | 0.7 | 9.9
CNC(=O)C(C)N(C)C(=O)c1cc2c(n(C)c1=O)CCCC2 (stereo not drawn) | 3.8 | -4.3

Part of the list above, with values under each structure:
Every second line gives: NPYLR7 ag, NPYLR7 ag max-min
> CN1C(=O)C2(CCCN(C(=O)C(=O)Nc3cccc(F)c3)C2)c2ccccc21 (stereo not drawn)
    -4.9, -5.4
> CCc1[nH]c2ccc(CNC(C)Cn3nc(C)cc3C)cc2c1C (stereo not drawn)
    -0.5, -4.8
> Cn1c(-c2ccncc2)n[nH]c1=S
    5.3, 4.5
> COc1cc(OC)cc(C(=O)Nc2ccc(CCNC(=O)NC(C)C)cc2)c1
    -5.0, -11.1
> NS(=O)(=O)c1ccc(CCNC(=O)c2csc(COC(=O)c3ccccc3)n2)cc1
    2.7, -0.1
> COc1ccc(CCNC(=O)c2ccccc2N2CCC(NC(=O)c3cc(F)cc(F)c3)CC2)cc1
    16.8, 13.9
> COc1ccc(Cl)cc1N1CCN(C(=O)c2ccc(Br)cc2)C(C)C1=O (stereo not drawn)
    -0.5, 11.8
> O=C(COc1cccc2ccccc12)NCCc1ccccc1
    -3.1, -5.7
> CCn1ccnc1CN1CCC(CO)(CC2CCCCO2)CC1 (stereo not drawn)
    7.3, 1.7
> O=C(c1cn[nH]n1)N1CCc2c([nH]c3ccccc23)C1
    -7.3, -8.4
> N#Cc1ccc(-c2ccc(OCC(=O)NN3Cc4ccccc4C3=N)cc2)cc1
    -0.2, -1.3
> CCOCCN1CCN(Cc2cn3c(C)cc(C)nc3n2)CC1
    2.9, 2.6
> CCOC(=O)N1CCN(Cc2ccc3c(c2)CN(C(=O)c2cccc(-n4cccn4)c2)CCO3)CC1
    -1.4, -8.5
> COc1ccc(-c2cccc(-c3cccc(NC(=O)c4ccccc4C(F)(F)F)c3)n2)cc1
    -4.6, -3.2
> COc1cccc(CCC2CCCN(C(=O)c3cccnc3)C2)c1 (stereo not drawn)
    -0.3, -2.4
> COCc1ccc(CNC(=O)Nc2ccccc2-n2c(C)c[nH]c2=O)cc1
    5.8, 2.7
> Cc1nc(CN2CCCCC2CCNS(C)(=O)=O)sc1C (stereo not drawn)
    3.0, 1.6
> COC(=O)C1=C(O)/C(=C\c2cc(O)c(OC)c(OC)c2)SC1=Nc1cccc([N+](=O)[O-])c1
    -2.7, 5.0
> COc1cc(C)c(NC(=O)c2cnccn2)cc1OC
    -21.9, -23.4
> Cc1nc2ccccc2nc1CN1CCCC(C(=O)Nc2cccc(-n3cccn3)c2)C1 (stereo not drawn)
    1.6, -1.5
> CCn1nc(C)c(C(=O)NCc2cc(-c3ccc(C)cc3)on2)c1C
    16.0, 6.3
> CCN(Cc1nc2cc(Cl)ccc2c(=O)[nH]1)C(=O)COc1cc(C)ccc1Cl
    9.0, 11.2
> O=c1[nH]c(-c2ccc(Br)cc2)nc2sc3c(c12)CCCC3
    16.8, 9.4
> Cn1c(O)c(N=Nc2cccc3cccnc23)c2ccccc21
    -1.4, 6.9
> O=C(c1ccc2ncc(I)n2c1)N1CCCCCCC1
    -0.5, -4.2

Remaining list, next part
smiles | NPYLR7 ag | NPYLR7 ag max-min
CCC(C)N(Cc1ccc(N(CC)CC)cc1OS(=O)(=O)c1ccc(OC)cc1)C(=O)c1ccco1 (stereo not drawn) | 29.9 | 27.0
COc1ccc(S(=O)(=O)c2cn(C)c3cc(N4CCCC(C)C4)c(F)cc3c2=O)cc1 (stereo not drawn) | -9.3 | -15.6
CC(=O)c1ccc(C(=O)N=c2sc3cc(F)cc(F)c3n2C)cc1 | 3.0 | 2.5
CCCCCN(Cc1cccn1Cc1cccc(C(F)(F)F)c1)C(=O)Nc1c(Cl)cccc1Cl | -8.2 | -11.8
Cn1cc(C(=O)CN2CCN(C(=O)c3ccc(Cl)cc3)CC2)cn1 | 2.0 | 27.9
COc1ccc(CCOC(=O)C2CCCCN2C(=O)c2ccc(C(F)(F)F)c(F)c2)cc1OC (stereo not drawn) | -16.9 | -23.3
COc1cccc2cc(-c3cn(-c4cccc(C)c4)c(=S)[nH]3)c(=O)oc12 | 0.6 | 0.2
CSc1nnc(CC2CCN(Cc3ccc(NC(C)=O)cc3)CC2)n1C | 11.1 | 6.8
CC(C)(C)c1cc(NC(=O)c2cc(Cl)ccc2F)n(-c2ccccc2Cl)n1 | 20.1 | 8.9
O=C(NCCC(F)(F)F)c1cnc(N2CCN(Cc3ccccc3)C2=O)s1 | -1.1 | -1.9

Screens: PubChem, Fisher Drug Discovery Resource Center

Only part of the results is shown; the hit share may differ from the screen's.
